# Screening data (PubChem BioAssay)
# CHRM5 agonist: human M5 muscarinic receptor agonists, primary screen, CHO-K1 cells, Fluo-8 calcium fluorescence. Muscarinic acetylcholine receptor M5 (Homo sapiens), P08912. CHO-K1 hM5 cells; 0% DMSO wells, 100% maximal acetylcholine response. activation, % at 3 µM. actives 0.19% (n = 360,000). AID 624037, 2012;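 active means activation above the run's mean over test compounds plus 3 SD, cut at about 23% in these data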;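 further: signal is peak over basal fluorescence ratio across the kinetic read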
# CHRM4 antagonist: human M4 muscarinic receptor antagonists, primary screen, CHO cells, Fluo-8 calcium fluorescence; Muscarinic acetylcholine receptor M4 (Homo sapiens), P08173; CHO-hM4 cells, ACh EC80; inhibition, % at 3 µM; actives 0.73% (n = 360,000); AID 624125, 2012;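 active means inhibition above its plate's cutoff, the mean inhibition of sample wells plus 3 SD, cut at about 27% in these data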;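 further: 0% = acetylcholine EC80 with DMSO and 100% = DMSO without agonist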
# Target sequence (P08173 whole entry, looked up): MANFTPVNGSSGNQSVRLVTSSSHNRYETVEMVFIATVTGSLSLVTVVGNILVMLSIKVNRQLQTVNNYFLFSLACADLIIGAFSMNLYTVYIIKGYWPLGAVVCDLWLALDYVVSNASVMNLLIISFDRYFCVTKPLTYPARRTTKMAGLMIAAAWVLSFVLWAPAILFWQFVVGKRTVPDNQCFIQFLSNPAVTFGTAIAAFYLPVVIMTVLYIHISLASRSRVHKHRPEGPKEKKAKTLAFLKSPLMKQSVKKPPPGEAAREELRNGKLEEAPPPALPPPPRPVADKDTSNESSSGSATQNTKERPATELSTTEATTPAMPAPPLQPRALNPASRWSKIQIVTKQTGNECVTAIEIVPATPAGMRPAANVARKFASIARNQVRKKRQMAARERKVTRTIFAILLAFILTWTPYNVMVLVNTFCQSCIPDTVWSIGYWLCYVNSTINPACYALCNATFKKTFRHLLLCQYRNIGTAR
# CHRM5 PAM: human M5 muscarinic receptor positive allosteric modulators, primary screen, CHO-K1 cells, Fluo-8 calcium fluorescence; CHO-K1 hM5, ACh EC20 PAM; 0% = ACh EC20, 100% = ACh EC100; activation, % at 3 µM; actives 0.3% (n = 360,000);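 active means activation above the run cutoff, the mean activation of all test compounds plus 3 SD, cut at about 18% in these data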
#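 Probe or stimulus: acetylcholine, EC20 level; Assay system: human M5 receptor in CHO-K1 cells; Schedule: compound preincubation 140 s before EC20 acetylcholine addition; Technique: intracellular calcium via Fluo-8 fluorescence; Dosing: single-point, 3 µM nominal; Read-out basis: percent activation from peak-over-basal fluorescence ratio, scaled EC20-to-EC100 acetylcholine; Repeats: one well per compound, no replicates.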
# M4 PAM: human M4 muscarinic receptor positive allosteric modulators, primary screen, CHO-K1 cells, Fluo-8 calcium fluorescence. CHO-K1 hM4/Gqi5, ACh EC20; 0% = ACh EC20, 100% = maximal ACh. activation, % at 3 µM. actives 0.4% (n = 360,000). AID 624126, 2012;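 active means activation above its plate's cutoff, the mean activation of sample wells plus 3 SD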; further: some results filed as inactive read as strong as hits
# M5 antag: human M5 muscarinic receptor antagonists, primary screen, CHO cells, Fluo-8 calcium fluorescence; Muscarinic acetylcholine receptor M5 (Homo sapiens), P08912; CHO-hM5 cells, ACh EC80; inhibition, % at 3 µM; actives 0.59% (n = 360,000); AID 624040, 2012;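 active means inhibition above a per-plate cutoff, the mean of that plate's test compounds plus 3 SD, cut at about 27% in these data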;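 further: 0% = acetylcholine EC80 with DMSO and 100% = DMSO without agonist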
# * hit, by the source's call; & = joins results of further samples. These rows are one share of the data; count on the stated rates, not on these rows.
SMILES,CHRM5 agonist,CHRM4 antagonist,CHRM5 PAM,M4 PAM,M5 antag
COC(=O)[C@H](c1ccccc1Cl)N1CCc2sccc2C1,-2,-1,-6,-1,-4
Cc1cccc(N(C)C(=S)Oc2ccc3ccccc3c2)c1,-1,1,-5,-10,-8
O=c1c(-c2ccc(O)cc2)coc2cc(O)cc(O)c12,9,-5,1,8,0
CCCCN(CCCC)CCC(O)c1cc2c(Cl)cc(Cl)cc2c2cc(C(F)(F)F)ccc12 (configuration not stated),1,-7,8,12,0
C[N+](C)(C)CCCCCCCCCC[N+](C)(C)C,0,-3,-1,-2,3
CN1C(C(=O)Nc2ccccn2)=C(O)c2sccc2S1(=O)=O,15,-1,-12,-2,4
Cc1nn(-c2ccccc2)c(Cl)c1/C=N/NC(=O)c1ccncc1,5,2,5,3,7
C[C@H](CS)C(=O)N1CCC[C@H]1C(=O)O,1,-5,5,5,-3
CC(C)(C)NC(=O)[C@@H]1C[C@@H]2CCCC[C@@H]2CN1C[C@@H](O)[C@H](Cc1ccccc1)NC(=O)[C@H](CC(N)=O)NC(=O)c1ccc2ccccc2n1,0&-1,-10&-3,1&-6,0&-4,-2&-1
COc1cc2c(c(OC)c1OC)-c1ccc(OC)c(=O)cc1[C@@H](NC(C)=O)CC2,0,-17,-4,0,-5
C[C@@H]1C[C@H]2[C@@H]3CCC4=CC(=O)C=C[C@]4(C)[C@@]3(F)[C@@H](O)C[C@]2(C)[C@@]1(O)C(=O)CO,1&3,-18&-12,-8&7,5&6,-2&-4
NCCNCCNCCN,1,3,-3,-1,1
COC(=O)Cc1c[nH]c2ccc(OCC(O)CNC(C)C)cc12 (configuration not stated),1,8,0,-5,1
NCCCC(=O)O,0,-13,1,8,-6
C[C@]12CCC(=O)C=C1CC[C@@H]1[C@@H]2C(=O)C[C@@]2(C)[C@H]1CC[C@]2(O)C(=O)CO,-1,-3,-17,-8,4
Cc1cc(NS(=O)(=O)c2ccc(N)cc2)no1,1,-9,-1,0,-4
CC12C=CC(=O)C=C1CCC1C2C(=O)CC2(C)C1CCC2(O)C(=O)CO (configuration not stated),0,-10,3,5,-7
COc1cccc2c1C(=O)c1c(O)c3c(c(O)c1C2=O)C[C@](O)(C(C)=O)C[C@H]3O[C@@H]1C[C@@H](N)[C@@H](O)[C@@H](C)O1,4,2,0,-4,2
CN[C@H]1CC[C@@H](c2ccc(Cl)c(Cl)c2)c2ccccc21,6&11,5&18,-1&-9,-10&-13,6&13
COc1ccc(Cn2cc(C(=O)O)c(=O)c3ccccc32)cc1,1,-12,3,3,-12
COc1cc2c(c(OC)c1OC)-c1ccc(OC)c(=O)cc1C(NC(C)=O)CC2 (configuration not stated),-2,-1,-6,-5,12
CCOC(=O)c1c(C)oc2ccc(O)cc12,-2,-5,-11,2,4
Cc1cccc(Nc2ccncc2S(=O)(=O)NC(=O)NC(C)C)c1,0,-9,-2,7,2
C#C[C@]1(O)CC[C@H]2[C@@H]3CCC4=CC(=O)CC[C@@H]4[C@H]3CC[C@@]21C,6,-37,-11,-6,3
CC(=O)Nc1cccc(O)c1,1,-9,-3,-6,-2
CC(=O)OC(C)C[N+](C)(C)C (configuration not stated),100*,23,-13,-20,96*
CC1(C)S[C@@H]2[C@H](NC(=O)C(NC(=O)N3CCNC3=O)c3ccccc3)C(=O)N2[C@H]1C(=O)O (some centres not stated),-1,6,3,6,9
C[C@H]1O[C@@H](O[C@H]2[C@@H](O)C[C@H](O[C@H]3[C@@H](O)C[C@H](O[C@H]4CC[C@@]5(C)[C@H](CC[C@@H]6[C@@H]5C[C@@H](O)[C@]5(C)[C@@H](C7=CC(=O)OC7)CC[C@]65O)C4)O[C@@H]3C)O[C@@H]2C)C[C@H](O)[C@@H]1O,1,-3,2,1,-8
CNC[C@H](O)c1ccc(O)c(O)c1,0,-14,0,1,-1

# Just M4 PAM (two entries from above):
canonical_smiles	M4 PAM
C[C@@H]1C[C@H]2[C@@H]3CCC4=CC(=O)C=C[C@]4(C)[C@@]3(F)[C@@H](O)C[C@]2(C)[C@@]1(O)C(=O)CO	5&6
COc1cc2c(c(OC)c1OC)-c1ccc(OC)c(=O)cc1[C@@H](NC(C)=O)CC2	0

# Among those listed so far, 8 contain a carbonyl joined to an NH by a bond outside any ring.
SMILES,CHRM5 agonist,CHRM4 antagonist,CHRM5 PAM,M4 PAM,M5 antag
CN1C(C(=O)Nc2ccccn2)=C(O)c2sccc2S1(=O)=O,15,-1,-12,-2,4
Cc1nn(-c2ccccc2)c(Cl)c1/C=N/NC(=O)c1ccncc1,5,2,5,3,7
CC(C)(C)NC(=O)[C@@H]1C[C@@H]2CCCC[C@@H]2CN1C[C@@H](O)[C@H](Cc1ccccc1)NC(=O)[C@H](CC(N)=O)NC(=O)c1ccc2ccccc2n1,0&-1,-10&-3,1&-6,0&-4,-2&-1
COc1cc2c(c(OC)c1OC)-c1ccc(OC)c(=O)cc1[C@@H](NC(C)=O)CC2,0,-17,-4,0,-5
COc1cc2c(c(OC)c1OC)-c1ccc(OC)c(=O)cc1C(NC(C)=O)CC2 (configuration not stated),-2,-1,-6,-5,12
Cc1cccc(Nc2ccncc2S(=O)(=O)NC(=O)NC(C)C)c1,0,-9,-2,7,2
CC(=O)Nc1cccc(O)c1,1,-9,-3,-6,-2
CC1(C)S[C@@H]2[C@H](NC(=O)C(NC(=O)N3CCNC3=O)c3ccccc3)C(=O)N2[C@H]1C(=O)O (some centres not stated),-1,6,3,6,9
